VDR inh = vitamin D3 receptor (human) inhibition; VDR-SRC2-3 peptide fluorescence polarization, 2 h; P11473; 0.93% of 400,000 active; Potency, µM, for the others: max response, negative = inhibition, most hits filed as inhibitors; active means well fitted inhibition curve with a large enough effect; inconclusive means small, poorly fitted or top-dose-only effect, or another doubt; inactive means no such curve, though single readings can be large or run the other way; further: series mostly up to about 120 µM
Target sequence (P11473 whole entry, looked up): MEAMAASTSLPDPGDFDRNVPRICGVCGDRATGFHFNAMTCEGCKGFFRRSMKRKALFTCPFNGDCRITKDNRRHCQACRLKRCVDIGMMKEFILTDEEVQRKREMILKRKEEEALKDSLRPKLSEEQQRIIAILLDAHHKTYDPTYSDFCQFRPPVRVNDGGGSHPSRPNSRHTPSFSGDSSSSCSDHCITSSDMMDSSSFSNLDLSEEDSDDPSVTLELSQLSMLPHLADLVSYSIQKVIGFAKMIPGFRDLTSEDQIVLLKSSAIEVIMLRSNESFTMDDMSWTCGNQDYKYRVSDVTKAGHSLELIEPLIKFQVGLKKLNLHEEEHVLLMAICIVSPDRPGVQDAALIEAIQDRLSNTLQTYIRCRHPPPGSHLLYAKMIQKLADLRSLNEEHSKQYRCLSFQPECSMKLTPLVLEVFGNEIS
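After 23 nl compound addition and a short centrifugation, plates sat for 2 hours at ambient temperature; polarization of fluorescence then indicated loss of VDR binding to peptide SRC2-3.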
* = called active by the depositor; ? = inconclusive; & = joins results of further samples. On the % scale 0 is the no-effect control and ±100 the full control effect; potency means the concentration at half of the fitted maximal effect. The list is partial; rates above refer to the full screens.

Sample of the layout (2 entries):
VDR inh,structure
-4%,CC(C)c1ccc(NC(=O)Cn2cc(S(=O)(=O)Cc3cccc(Cl)c3)c3ccccc32)cc1
5%,Cc1ccc2c(c1)c(N=Nc1ccc([N+](=O)[O-])cc1)c(O)n2C

The whole of this part, from the first entry:
VDR inh,structure
-4%,CC(C)c1ccc(NC(=O)Cn2cc(S(=O)(=O)Cc3cccc(Cl)c3)c3ccccc32)cc1
5%,Cc1ccc2c(c1)c(N=Nc1ccc([N+](=O)[O-])cc1)c(O)n2C
-3%,COC(=O)c1cc2c(=O)n3ccccc3nc2n(Cc2cccnc2)c1=N
11%,Cc1ccc(CNC(=O)C2CCCN(c3nn4cc(-c5ccc(C)cc5)nc4s3)C2)cc1 (stereo not drawn)
-21%,COc1ccc([C@H]2CC(=O)C=C(c3ccc4c(c3)sc3ccccc34)C2)cc1
-3%,O=C(NCCCN1CCCCC1)c1[nH]c2ccccc2c1Sc1ccc(Cl)cc1
-2%,COc1cccc(-c2ccc3c(N)c(C(=O)Nc4ccc(C)c(F)c4)sc3n2)c1
2%&-11%,O=C1OCCN1C(=O)[C@H]1[C@H](c2ccc(Cl)cc2)C(c2ccccc2)=NN1c1ccccc1
-23%,C#CCCOC(=O)N1C2=NC(C(=O)OC)=C(C(=O)OC)[C@@H]3N(Cc4ccccc4)c4ccccc4[C@]23C[C@H]1C(=O)OC
8%,O=C(Nc1nccs1)c1ccc(-c2ccccc2[N+](=O)[O-])o1
-23%,Cc1cccc(NC(=O)c2cc(S(=O)(=O)NCc3ccco3)ccc2F)c1C
-15%,Clc1ccc(Sc2oc(/C=N/n3cnnc3)cc2Br)cc1

Quoted at random: 4 entries already listed
VDR inh,structure
8%,O=C(Nc1nccs1)c1ccc(-c2ccccc2[N+](=O)[O-])o1
-4%,CC(C)c1ccc(NC(=O)Cn2cc(S(=O)(=O)Cc3cccc(Cl)c3)c3ccccc32)cc1
-3%,COC(=O)c1cc2c(=O)n3ccccc3nc2n(Cc2cccnc2)c1=N
-2%,COc1cccc(-c2ccc3c(N)c(C(=O)Nc4ccc(C)c(F)c4)sc3n2)c1

Further entries follow.
VDR inh,structure
21%,C=CCN1C(=O)c2ccc(C(=O)OCC(=O)N(CC)c3c(N)n(Cc4ccccc4)c(=O)[nH]c3=O)cc2C1=O
4%,CCOC(=O)c1c(C=O)c2sc(C)cc2n1C
?,COc1ccc2cc(C(=O)C3CCCN(C(=O)c4cnn(C(C)C)c4)C3)ccc2c1 (stereo not drawn)
3%,CC(=O)N1c2ccc(S(=O)(=O)N3CCCC(C(=O)NCc4ccccc4Cl)C3)cc2CC1C (stereo not drawn)
-9%,CCOC(=O)c1sc2ncnc(N3CCN(C)CC3)c2c1C
-28%,C=CCn1c2ccccc2c2nnc(SC(CC)C(=O)Nc3nc(C)c(C(=O)OCC)s3)nc21 (stereo not drawn)
-17%,CCOC(=O)c1sc(Nc2nc(C)cc(OC)n2)nc1C
8%,CCOC(=O)c1cccc(NS(=O)(=O)c2ccc(-c3cnc(C4CC4)o3)cc2)c1
5%,O=C(CCc1ccccc1)N(Cc1cccnc1)c1nc2ccc(F)cc2s1
-3%,CC1CC(C)CN(CC(=O)NC(c2ccccc2)c2ccccc2)C1 (stereo not drawn)
19%,CCCCCCn1c(CN2CCN(Cc3ccccc3)CC2)nc2c1c(=O)n(C)c(=O)n2C
-5%,Cc1nn(Cc2n[nH]c(=S)n2Cc2ccccc2)c(C)c1Cl
-19%,COc1ccccc1C(=O)NCC(=O)OCC(=O)Nc1cccc(S(=O)(=O)N2CCCCCC2)c1
-3%,COc1ccccc1CNC(=O)c1ccc(Cl)c(S(=O)(=O)N2CCCC2)c1
9%,COCCNC(=O)CC(=O)N/N=C/c1ccc(C(=O)OC)cc1
-29%,CCC(C)(C(=O)Nc1ccccc1C)N(C(=O)CNC(C)=O)c1ccc(C)cc1 (stereo not drawn)
-3%,CCOC(=O)N1CCN(C(c2ccc(F)cc2)c2sc3nc(C)nn3c2O)CC1 (stereo not drawn)
-6%,CC(C)(C)S(=O)N1Cc2cc(CO)cc(CCO)c2[C@H]1CCO (stereo partly drawn)
5%,COc1ccc([N+](=O)[O-])cc1NS(=O)(=O)c1cccc(C(=O)O)c1
2%,CC(=O)c1cccc(NC(=O)[C@@H](NC(N)=O)C(C)C)c1
-11%,CCOc1ccccc1NC(=O)COC(=O)c1c[nH]c2ccccc12
0%,COCCN1CCN(Cc2ccc(C(=O)NC(C)C)cc2)C(=O)C1=O
9%,C/C(NC1CCCC1)=C(/C#N)C(N)=O
-6%,CCn1c2ccccc2c2cc(/C=N/NC(=O)c3ccncc3)ccc21
-11%,CCCCCCn1cc(C(=O)O)c(=O)c2cc(F)c(N3CCN(C(=O)OCC)CC3)cc21
-3%,O=c1ccc2cc([N+](=O)[O-])c(CCO)cc2o1
-15%,CCN1CCN(c2nc(Nc3cc(OC)ccc3OC)nc(Nc3cc(OC)ccc3OC)n2)CC1
-7%,OCCCN1CCN(CCOc2ccccc2-c2ccccc2)CC1
-8%,O=C1c2ccccc2C(=O)N1CCCCc1cn(C[C@H]2CC[C@@H]([C@@H]3CC[C@H](Cn4cc(CCCCN5C(=O)c6ccccc6C5=O)nn4)O3)O2)nn1
-2%,COc1ccc(N(C(=O)c2ccco2)S(=O)(=O)c2cccc([N+](=O)[O-])c2)cc1
-10%,CC(C)COC[C@H](CN(Cc1ccccc1)c1ccccc1)N1CCCC1
9%,COc1ccc(-c2coc3c2c(C)cc2oc(=O)c(CC(=O)O)c(C)c23)cc1
12%,O=C(CN1CCCN(Cc2ccc(F)cc2Cl)C1=O)NC1CCCC1
-2%,CCOc1nc(-c2ccccc2)c2cc(Br)ccc2n1
10%,COCCn1c(SCC(=O)Nc2ccccc2C)nc2c(oc3ccccc32)c1=O
13%,O=C(CNCC(=O)Nc1ccc(F)c(F)c1F)Nc1ccc(F)c(F)c1F
-12%,CCOCCn1c(CC)nc2ccccc21
-18%,CCn1c(SCC(=O)N2CCCC(C)C2)nnc1-c1ccco1 (stereo not drawn)
5%,Cn1c(NCC(O)CO)nc2c1c(=O)n(Cc1ccc(Cl)c(Cl)c1)c(=O)n2C (stereo not drawn)
2%,O=C(N/N=C\c1c(O)ccc2ccccc12)c1cncc(Br)c1
13%,CCn1ncc(/C=N/O)c1C
10%,O=C(CN1C(=O)NC2(CCCCCC2)C1=O)NCc1ccccc1
-19%,CC(Sc1nnc(-c2ccc(O)cc2)o1)C(=O)Nc1cccc2ccccc12 (stereo not drawn)
0%,CCc1nc(SCC(=O)Nc2ccc(NC(C)=O)cc2)n[nH]1
-3%,O=C(Cc1cccc2ccccc12)NCCOc1ccccc1F
10%,Cc1cccc2cc(C#N)c(SCC(=O)NNC(=O)Cc3ccccc3)nc12
?,COc1ccc2[nH]cc(CCNc3cc(-c4ccccc4C)ncn3)c2c1
-18%&6%,Cc1ccc(CNC(=O)C2CCN(S(=O)(=O)c3cccc4nonc34)CC2)cc1

Part of the list above, reformatted:
SMILES | VDR inh
O=C(N/N=C\c1c(O)ccc2ccccc12)c1cncc(Br)c1 | 2%
CCn1ncc(/C=N/O)c1C | 13%
O=C(CN1C(=O)NC2(CCCCCC2)C1=O)NCc1ccccc1 | 10%
CC(Sc1nnc(-c2ccc(O)cc2)o1)C(=O)Nc1cccc2ccccc12 (stereo not drawn) | -19%

More compounds:
VDR inh,structure
-6%,Cn1cc(C(=O)C(=O)NC2CC2)c2ccccc21
-7%&4%,CC(=O)Nc1ccc(OC[C@@H](O)CNC(C)C)cc1
1%,CC(C)CC(=O)CN1C(=O)C2(OCCO2)c2ccccc21
-5%,CNC(=O)c1[nH]cnc1C(=O)N[C@@H](Cc1ccccc1)C(=O)OC(C)(C)C
13%,COC(=O)[C@@H](NC(=O)Nc1ccc(OC)cc1)C(C)C
-6%,O=C(N/N=C1\CCc2ccccc21)c1ccncc1
-9%,CC1CCCCC1NC(=O)Cn1cnc2c1c(=O)n(C)c(=O)n2C (stereo not drawn)
-2%,COc1ccc(-n2nnnc2SC(C)C(N)=O)cc1 (stereo not drawn)
-15%,COc1ccccc1NC(=O)CC(c1ccc(F)cc1)c1ccco1 (stereo not drawn)
3%,Cc1cc(CN(C)C(=O)c2ccc3nc(Cc4ccccc4F)oc3c2)on1
-5%,CCC(=O)N1CCc2cc(OC)c(OC)cc2C1COc1ccc2c(C)cc(=O)oc2c1 (stereo not drawn)
-8%,COC(=O)c1nccnc1N
-12%,COc1ccccc1C(=O)Nc1c(C(=O)N(C)c2ccccc2)sc2nc(C)cc(C)c12
-8%,CNc1oc(-c2ccc(OCc3ccccc3)cc2)nc1C#N
-1%,COc1ccccc1C(=O)Nc1ccnn1C1CCN(Cc2csc(C(C)=O)c2)CC1
11%,Nc1ccccc1SCC(=O)Nc1cccc2ccccc12
-10%,COc1cccc(NS(=O)(=O)c2c(C)n(C)c(=O)n(C)c2=O)c1
-8%,Cc1c(C(=O)NCc2ccccn2)sc2nc(-c3ccc(F)cc3)cn12
7%,COCCn1c(NCc2ccc(C)cc2)nc2c1c(=O)[nH]c(=O)n2C
-6%,Cc1cc(C(=O)Nc2ccc(S(=O)(=O)N3CCOCC3)cc2)c(C)o1
27%,CCOc1ccc(C(=O)CCC(=O)NNC(=O)c2ccccc2O)cc1
-4%,COc1ccc(O)c(-c2[nH]ncc2C(=O)c2cccc(C)c2)c1
-52%,COC(=O)[C@H](C)NC(=O)NCc1ccc(F)cc1
-17%,Nc1cccc(-c2cc3ccccc3oc2=O)c1
-16%,O=C(Nc1ccccc1F)c1ccc(CSc2ncccn2)cc1
7%,CN(C)S(=O)(=O)c1ccc(C(=O)Nc2nnc(SCc3cccc(F)c3)s2)cc1
-17%,COc1ccc(CC(=O)Nc2c3c(nn2-c2cccc(Cl)c2)CS(=O)(=O)C3)cc1
-15%,Cc1ccc(-c2n[nH]c(=S)n2C)cc1Cl
8%,O=C1CC(NNc2ccccc2)C(=O)N1c1cccc(Cl)c1 (stereo not drawn)
1%,CC1Cc2ccccc2N1C(=O)COC(=O)c1cc(Br)ccc1O (stereo not drawn)
3%,CNC(=O)C(=O)NCC1OCCN1S(=O)(=O)c1ccc([N+](=O)[O-])cc1 (stereo not drawn)
2%&11%,COc1ccccc1NC(=O)CCC(=O)N1CC(C)Oc2ccc(C)cc21 (stereo not drawn)
-1%,CCc1ccccc1NC(=O)CSc1nnc(CNC(=O)c2ccco2)n1C
-1%,COc1cccc(OC)c1OCC(=O)Nc1ccc(S(=O)(=O)N2CCCC2)cc1
8%,CCC(=O)N(c1nnc(SCC(=O)NN2C(=O)NC3(CCCCC3)C2=O)s1)C1CC1
-19%,Cc1cc(C)cc(OCC(=O)NCc2cc(C)nc3ccccc23)c1

An excerpt of these results, with bars between the fields.
SMILES | VDR inh
Cc1nn(Cc2n[nH]c(=S)n2Cc2ccccc2)c(C)c1Cl | -5%
COc1ccccc1C(=O)NCC(=O)OCC(=O)Nc1cccc(S(=O)(=O)N2CCCCCC2)c1 | -19%
COc1ccccc1CNC(=O)c1ccc(Cl)c(S(=O)(=O)N2CCCC2)c1 | -3%
COCCNC(=O)CC(=O)N/N=C/c1ccc(C(=O)OC)cc1 | 9%
CCC(C)(C(=O)Nc1ccccc1C)N(C(=O)CNC(C)=O)c1ccc(C)cc1 (stereo not drawn) | -29%

Additional entries
VDR inh,structure
-4%,COc1ccc(S(=O)(=O)N2CCCC(C(=O)NCc3ccco3)C2)cc1Cl (stereo not drawn)
4%,O=C(C[n+]1cc(-c2ccccc2)n2c1CCC2)c1cccs1
-9%,CCN(CC)CCn1c(NS(=O)(=O)c2ccc(C)cc2)nc2ccccc21
-16%,N#Cc1c(NCCCO)nc(-c2ccco2)c2c1CCCC2
-15%,O=C(COC(=O)Cc1ccsc1)NCC12CC3CC(CC(C3)C1)C2
10%,CNC(=S)Nc1cc(OC)ccc1OC
-15%,CCOC(=O)Cc1cc(-c2ccc(OC)cc2)nc2ccc3ccccc3c12
14%,COc1ccc(C2CCCN2C(=S)Nc2ccc(C)c(C)c2)cc1OC (stereo not drawn)
0%,Cc1nc(N2CCOCC2)nc(N2CCCCC2)c1[N+](=O)[O-]
2%,O=C(c1ccc2c(=O)n(Cc3ccco3)c(=S)[nH]c2c1)N1CCN(Cc2ccccc2)CC1
12%,COc1ccc(CNc2oc(COc3ccc(Cl)cc3)nc2C#N)cc1
-3%,CC(C)c1cc(C(=O)NNC(=S)NCc2ccco2)c(O)c(C(C)C)c1
2%,CN(Cc1ccccc1F)c1ncnc2sccc12
-7%,COc1ccc(CCN(C(=O)c2snc(C(N)=O)c2N)C(C(=O)NCC2CCCO2)c2ccc(F)cc2)cc1OC (stereo not drawn)
-14%,Cc1noc(C(=O)NCc2ccco2)c1Cl
2%,O=C(CSc1nc2ccccc2c(=O)[nH]1)Nc1nc(-c2ccc(Br)cc2)cs1
-16%,Cc1ccc(S(=O)(=O)CCc2nnc(NC(=O)C3CCCO3)s2)cc1 (stereo not drawn)
-8%,CCOC(=O)c1ccc(NC(=O)c2cn(-c3ccccc3)nc2-c2ccc(C)cc2)cc1
26%,Cc1ccc(-n2c(-c3ccccc3)nnc2-c2cccs2)cc1
1%,COc1ncc2nc(CCc3ccccc3)c(=O)n(Cc3cccs3)c2n1
0%,CC(=O)c1ccccc1NC(=O)C1CC(=O)N(c2ccc3c(c2)OCCO3)C1 (stereo not drawn)
5%,O=C(C1CCCO1)N1CCN(S(=O)(=O)c2cccc3nsnc23)CC1 (stereo not drawn)
-1%,O=[N+]([O-])c1ccc(OCCCOc2cccc3cccnc23)cc1
-11%,Cc1nn(CCO)c2nc(-c3cccs3)cc(C(F)(F)F)c12
-4%,Cc1cc2c(cc1S(=O)(=O)NCc1ccc(F)cc1)OCC(=O)N2
4%,O=C(O)c1cc2cc(Cl)ccc2oc1=O

Bioassay records: PubChem BioAssay, National Center for Advancing Translational Sciences (NCATS)
